Screening results as filed in PubChem BioAssay.
Sa RN4220 lethal = kills Staphylococcus aureus RN4220. S. aureus RN4220 growth, OD600, 16 h. inhibition, % (test concentration not listed). hit rate 0.33% among 330,000;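 active = z-score of -3 or lower and OD600 up to 0.18 on both plates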;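 note: plate controls were untreated cells for no effect and reference antibiotic for full effect; stock transfer was 100 nL into about 80 µL; one replicate is shown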
PrP UTR inh = inhibition of PrP 5' UTR reporter expression; cell-based PrP 5' UTR mRNA reporter, plate reader; inhibition, % (test concentration not listed); hit rate 0.35% among 340,000;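 active = every replicate at 50% or more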;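 note: 0 = median of the neutral control wells; tested in H4 reporter cells; numbers are from one replicate; inactives centre near -14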
Mtb hypoxia rep = reduces hypoxia-regulated biosensor signal in M. tuberculosis; M. tuberculosis hypoxia-regulated fluorescent reporter, fluorescence; fluorescence inhibition, % (concentration not given with the values); hit rate 0.1% among 300,000; AID 1159583;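 active = 35 to 45% if threefold the growth effect, above 45% if 1.5-fold the growth effect; inactive = the rest, general growth blockers included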;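 note: wells of about 50 µL received 100 nL stock; 0% = vehicle wells and 100% = reference inhibitor wells; whole bacteria with a GFP reporter of the hypoxia response; strong numbers were not always called active; many hits fall short of the cut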
BJeLR viability = BJeLR cell viability loss | inhibition, % (no concentration beside the values) | BJeLR (HRASV12) viability, CellTiter-Glo ATP luminescence, 48 h; reference of the scale not given here | AID 1554 | hit rate 0.17% among 300,000;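 active = replicate mean above 50%; inconclusive = above 50% but judged a plate artefact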;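 note: 50 nL library stock added to about 25 µL; numbers are from one replicate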
Bead autofluor = counter-screen for toxin protease inhibitors: compound fluorescence. compound autofluorescence counterscreen, microsphere flow cytometry; stronger effect = higher value. fluorescence intensity (no concentration beside the values). hit rate 3.1% among 360,000. AID 624483;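 active = at least 3 SD above the mean of all compounds, about 16000 in these data; inconclusive = too few beads counted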;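 note: 100 nL of 1 mM stock went into each well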
Sa ugtP lethal = compounds lethal to S. aureus RN4220 ugtP deletion mutant; OD600 growth, 16 h; some inactives read as strong as hits; growth inhibition, % (test concentration not listed); hit rate 0.54% among 330,000; AID 1259309;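 active = z-score under -3 and OD600 up to 0.15 on both plates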;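 note: plate controls were untreated wells for no effect and antibiotic for full effect; wells of about 80 µL received 100 nL stock; the first replicate is given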
Mtb hypoxia rep growth = further read-out of Mtb hypoxia rep, marked with its call; growth inhibition, %; measured here: M. tuberculosis growth (absorbance);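 0% = vehicle and 100% = reference antibiotic; read after six days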
Numbers without * were called inactive; u = inconclusive; x = no result given. Rows were taken by chance (roughly 4% active in at least one column).

SMILES	Sa RN4220 lethal	PrP UTR inh	Mtb hypoxia rep	Mtb hypoxia rep growth	BJeLR viability	Bead autofluor	Sa ugtP lethal
Cc1cc(C)c(C(=O)NC2CC(C)(C)Cc3c2cnn3-c2cccc(F)c2)[nH]1 (stereo not given)	-1.9	2	-4	-6	-3	u	1
O=[N+]([O-])c1ccc2nc(N3CCCC3)sc2c1	7.2	-22	16	1	5	3765	10
O=C(Nc1nc2ccccc2n1CCN1CCCCC1)c1ccco1	-0.2	-1	x	x	-1	2957	3
COC(C[C@H]1O[C@H]1[C@H](O)[C@H](C)OCc1ccccc1)OC	x	2	x	x	-10	3873	x
NC(=O)CC(NC(=O)Cc1ccc(Cl)cc1)c1ccc(NC2CC3CCC2C3)c([N+](=O)[O-])c1 (stereo not given)	-4.9	-16	14	10	-8	2953	2
CCN1CCN(c2ccc(NC(=O)c3ccc4c(c3)[nH]c(=O)n4Cc3ccc(OC)cc3)cc2)CC1	-0.2	-7	3	7	6	2156	-2
Cc1cc(NC(=O)CCCC(=O)N(CC(=O)NC2CCCCC2)c2ccccc2)no1	0.6	-16	17	8	-2	3477	3
CCN1C(=O)c2cccc3c(N)ccc(c23)C1=O	x	-1	x	x	8	4974	x
COc1ccccc1C=NNC(=S)NCc1ccco1	2.4	x	-2	-5	x	x	5
COc1ccc(CN(C)C(=O)c2cccc(C(=O)N(C)Cc3ccc(OC)cc3)c2)cc1	0.3	-7	-5	12	1	3457	1
Cn1ccc(C(=O)Oc2ccc(C(=O)Nc3ccc(F)cc3F)cc2)n1	2.7	-35	-3	1	5	4384	2
CCNC(=O)CN(c1ccc(Cl)cc1)S(=O)(=O)c1ccccc1	2.4	-14	-9	2	0	10327	-8
CCn1c(SCC(=O)NC2CCCCC2)nnc1-c1cccnc1	3.1	-20	5	-10	0	6083	3
O=C(CSc1nc2c(sc3ccccc32)c(=O)n1Cc1ccco1)NCC1CCCO1 (stereo not given)	6.3	-3	6	-1	-2	3973	-5
Cc1cc2cc(CNC(=O)CC(C)C)ccc2n1C	1.0	-25	15	-1	-2	17533*	4
Cc1ccccc1-n1nc2c(c1NC(=O)C1CCCC1)CS(=O)(=O)C2	1.7	-1	-11	-11	-3	5727	0
COc1ccccc1-c1nnc(NC(=O)CCS(=O)(=O)c2ccccc2)o1	-4.1	-6	15	-6	-1	6958	3
COc1ccc(CC(=O)OCC(=O)Nc2c(C)n(C)n(-c3ccccc3)c2=O)cc1	-15	-20	15	7	-6	3255	-5
Cc1oc(-c2ccc(Cl)cc2)nc1CN1CCC(C(=O)NCc2cccnc2)CC1	-1.5	-13	5	0	3	16967*	3
COc1cccc2oc(CCc3ccccc3)cc(=O)c12	4.6	-65	2	6	x	2935	2
c1ccc2c(-n3cccn3)cccc2c1	-7.7	-65	6	10	-4	3352	-8
N#Cc1ccc(CSc2ccccn2)c(Cl)c1	5.0	-13	-4	-2	0	3354	3
O=C(COc1cccc(-n2cnnn2)c1)NC1CCCCC1	4.4	-50	13	1	10	4344	7
COc1ccc(C(=O)CN2CCN(CCN3C(=O)c4cccc5cccc(c45)C3=O)CC2)cc1	2.6	-8	5	12	2	4804	-3
CNC(=O)c1c(NC(=O)CCS(=O)(=O)c2ccccc2)sc2c1CCN(C(=O)OC)C2	0.5	-15	-7	11	-6	u	-5
CCN(CC)C(=O)Cn1c(=O)n(-c2ccc(CC(=O)NCc3ccccc3)cc2)c(=O)c2sccc21	4.3	-22	4	6	22	4585	18
CCOc1cccc(Nc2ccc([N+](=O)[O-])cn2)c1	1.6	-36	8	1	-2	4378	-3
COC(=O)c1cc(OC)c(OC)cc1NC(=O)C1CCC(=O)N1S(=O)(=O)c1ccc(C)cc1 (stereo not given)	-0.7	-21	-3	-1	-2	9381	-1
C=CCn1c(=N)c(C(=O)NCCCOC)cc2c(=O)n3cc(C)ccc3nc21	2.2	-24	-2	5	18	9045	-9
Cc1cccc(C)c1-n1c(C)nn(CC2CC2)c1=O	8.0	-27	-1	8	-17	3910	4
CC(=O)N(C)c1ccc(NC(=O)Cc2cccc3ccccc23)cc1	1.3	-20	9	2	-6	6203	3
O=C(CN1C(=O)c2ccccc2C1=O)NNC1=NS(=O)(=O)c2ccccc21	3.7	-14	5	1	3	2653	3
Cc1ccccc1C(=O)NC1CC(C)(C)NC(C)(C)C1	-15	-12	6	5	0	x	-7
N#C/C(=C\c1ccc[nH]1)C(=O)Nc1ccccc1[N+](=O)[O-]	1.9	-41	-7	-3	1	6056	-8
COc1ccccc1NC(=O)C1=C(C)Nc2nnnn2C1c1cccc(C)c1 (stereo not given)	-2.5	-23	-5	-4	-10	5859	-9
O=C(COC(=O)[C@H](Cc1ccccc1)N1C(=O)c2ccccc2C1=O)Nc1ccc2c(c1)OCO2	6.0	-1	x	x	10	2745	2
COc1ccc(Cl)cc1NC(=O)CSc1nnc(COc2ccccc2)n1C	-4.6	-11	-8	17	-15	8835	-10
CCCCc1cc(=O)oc2cc(C)cc(OC(C)C(=O)NCC3CCC(C(=O)O)CC3)c12 (stereo not given)	6.4	-16	x	x	-2	5401	-8
CCCCn1c(=O)cc(C)n(-c2ccccc2)c1=O	1.8	-20	20	1	4	4321	7
COC(=O)C1=C[C@@H](C(=O)OC)[C@@H]2C3=C(C(=O)[C@]2(C)NC(=O)c2ccccc2)[C@H](C)n2c(=O)n(C)c(=O)n2[C@@H]3C1	x	-12	x	x	10	4221	x
CC(NC(=O)C1CCCN1S(=O)(=O)c1cccc2cccnc12)c1ccccc1 (stereo not given)	1.9	-12	x	x	0	5710	3
CCN(CC)C(=O)CSc1nc2ccccc2o1	-8.9	-37	19	7	9	2785	-4
O=C(NCCN1CCOCC1)c1nn2c(c1Cl)NC(c1ccccc1)CC2C(F)(F)F (stereo not given)	7.7	-12	7	6	4	6725	-5
COCC(O)CSc1nc(C)[nH]c1[N+](=O)[O-] (stereo not given)	2.8	-14	4	13	7	4301	3
C=CCn1c(CCC(O)COCCCCC)n[nH]c1=S (stereo not given)	1.5	-26	3	-8	-8	4114	4
COc1ccc(N(C(=O)c2snc(C(N)=O)c2N)C(C(=O)NCC2CCCO2)c2ccc3ncccc3c2)cc1OC (stereo not given)	-3.9	-18	-4	8	0	3435	4
Cc1ccsc1/C=C/c1n[nH]c(=O)c(C#N)c1C	4.1	-6	9	7	1	3104	17
Cc1ccc(N2C(=O)NC(NC(=O)c3ccc(Cl)cc3)(C(F)(F)F)C2=O)cc1 (stereo not given)	3.9	-34	0	2	3	2424	5
COc1ccc(-c2cn[nH]c2-c2ccc(O)cc2O)cc1	-1.4	8	2	3	0	3989	10
CC(=O)c1cc(C(=O)Nc2ccccc2C(=O)O)oc1C	7.2	-3	x	x	0	2290	1
CCn1cc(C(=O)OCC(=O)c2cc(C)n(-c3ccccc3F)c2C)c(=O)c2ccc(C)nc21	2.6	0	-1	1	-11	9987	-7
O=C(Nc1ccc2c(c1)OCCO2)c1ccc(S(=O)(=O)N2CCCCC2)cc1	3.4	-30	12	13	12	16458*	5
CCCn1nc(C(=O)Nc2cccc(S(=O)(=O)N(C)c3ccccc3)c2)c2ccccc2c1=O	0.4	-7	-9	-2	x	2875	-10
O=C(Nc1cccc(S(=O)(=O)N2CCOCC2)c1)c1ccc(=O)[nH]c1	1.4	5	4	13	x	3704	6
COc1ccc(NC(=O)c2cccc(Cn3cc(Br)c([N+](=O)[O-])n3)c2)c(C)c1	7.4	-1	5	0	-5	2130	10
Cc1c(NC(=O)CSc2nc3ccccc3[nH]2)c(=O)n(-c2ccccc2)n1C	4.2	-8	7	5	9	9440	5
O=C(Nn1cnnc1)c1ccc([N+](=O)[O-])cc1Cl	2.2	-21	14	5	-4	5861	15
Cc1c(C)n(C)c2ccc(C(=O)NCCCN3CCCCC3)cc12	-1.2	-16	1	-3	6	7690	0
CCN(CCO)c1nc(N2CCCCC2)c2cnn(C)c2n1	5.1	-18	0	-3	-3	5834	7
Cc1noc(C)c1COC(=O)CCc1nc2ccccc2c(=O)[nH]1	-0.2	-24	11	2	20	4578	0

Profiles, looked up by structure. Order of screens: Sa RN4220 lethal, PrP UTR inh, Mtb hypoxia rep, Mtb hypoxia rep growth, BJeLR viability, Bead autofluor, Sa ugtP lethal
Results for O=C(Nc1cccc(S(=O)(=O)N2CCOCC2)c1)c1ccc(=O)[nH]c1 : 1.4, 5, 4, 13, x, 3704, 6
Results for O=C(Nc1ccc2c(c1)OCCO2)c1ccc(S(=O)(=O)N2CCCCC2)cc1 : 3.4, -30, 12, 13, 12, 16458*, 5

(list continues)
SMILES	Sa RN4220 lethal	PrP UTR inh	Mtb hypoxia rep	Mtb hypoxia rep growth	BJeLR viability	Bead autofluor	Sa ugtP lethal
Cc1cccc(NC(=O)Nc2ccccn2)c1C	4.3	-40	17	10	-1	3333	1
CC(C)(C)OC(=O)NCCc1nnc(SCC(N)=O)o1	-1.1	-14	-6	0	0	u	-2
CSc1ncccc1C(=O)OCc1ccc(C#N)cc1	4.6	-1	9	9	-6	4034	5
CCNC(=S)N/N=C/c1ccc(OCC(=O)Nc2ccc(OC)cc2)c(OC)c1	x	-26	x	x	6	10126	x
Cc1nc(NC(=O)c2oc3ccccc3c2C)sc1C(=O)N(C)C	2.8	-53	0	11	5	24342*	-1
O=C1C=C(Nc2ccccc2)CC(c2ccccc2)C1 (stereo not given)	0.0	-14	1	-1	0	4021	-3
O=C(CCC(=O)N1CCOc2ccccc21)NCCN1CCOCC1	3.7	-23	3	0	-7	5509	2
CN(C)/C=N/c1sc2c(c1C(N)=O)CCCC2	x	40	x	x	1	4417	x
O=C(O)CCN1C(=O)c2ccc(NC(=O)C(c3ccccc3)c3ccccc3)cc2C1=O	4.6	-15	11	6	6	x	11
O=C(Nc1ccc(OCC(F)(F)C(F)F)cc1)c1ccncc1	9.2	2	11	2	5	4281	6
CCOc1ccc(Cl)cc1CNCCNCC(C)O (stereo not given)	4.3	-11	5	18	-2	8160	3
C[C@H](NC(=O)c1nc[nH]c1C(=O)NCCCCCN)C(=O)OCc1ccccc1	x	-5	x	x	15	3590	x
O=C(Nc1ccc(S(=O)(=O)Nc2ncccn2)cc1)C1=NN(c2ccccc2)C(=O)CC1	2.4	6	18	12	-3	4778	3
CCN(CC)C(=O)CSc1nc2ccccc2c(=O)n1CCC(=O)NCc1ccc(F)cc1	3.0	-8	7	10	-1	9955	-1
O=C(NCC12CC3CC(CC(C3)C1)C2)c1nn2cccnc2c1Cl	-2.0	0	-1	-1	2	16281*	-9
Cc1onc(-c2ccccc2)c1C(=O)NCCc1ccc(Cl)cc1	23	7	12	6	-5	3118	3
Oc1cccc(NC(=S)Nc2ccc(SC(F)F)cc2)c1	4.7	-2	8	14	-4	2785	-14
FC(F)(F)c1cc(Sc2ccccc2)nc(-c2ccccn2)n1	4.6	-25	3	4	3	16298*	15
CCCn1c(-c2ccc(OC)cc2)nc2c(=O)n(C)c(=O)[nH]c21	3.9	-28	x	x	-1	2238	-3
CCOC(=O)C(CCCCP(=O)(c1ccccc1)c1ccccc1)(NC(C)=O)C(=O)OCC	3.0	-17	-1	4	12	u	-1
Cc1cc(C)c2cc3c(N)c(C(=O)Nc4c(C)[nH]c(=O)[nH]c4=O)sc3nc2c1	1.7	-23	-3	0	-2	10076	0
Cn1c(=O)c2c(nc(-n3ccnc3)n2C)n(C)c1=O	-15	-17	4	0	3	3220	-7
NS(=O)(=O)c1ccc(-c2ccc(C=O)o2)cc1	10	-36	6	6	-5	3302	6
COc1cccc(NS(=O)(=O)c2cc3c(cc2C)N(C(C)=O)CCO3)c1	7.4	-26	-2	1	13	6074	-2
Cc1ccc(NS(=O)(=O)c2ccc3c(c2)n(C)c(=O)c(=O)n3C)c(C)c1	1.2	0	1	-4	8	3427	6
Cc1ccc(-c2cc(-c3cccc(F)c3)n[nH]2)c(O)c1	-13	-140	x	x	-13	2751	58
CC(C)c1ccc2[nH]c(O)c(N=NC(=O)c3cccc(S(=O)(=O)Nc4ccccc4Cl)c3)c2c1	x	-12	x	x	-3	1984	x
Cc1ccc(-n2nc(C)c(C(=O)O)n2)c(C)c1	8.9	-4	11	0	-16	2664	12
